Sa helicase inh – blocks Staphylococcus aureus DNA helicase; purified S. aureus helicase, fluorescence unwinding assay; about half of the hits fall short of the stated cut; inhibition, %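 (tested at about 80 µM)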; 120,000 compounds, 0.05% hits; AID 485395;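 active = both duplicates at 50% or more, or one of them with a favoured structure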;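 also: 0% = mean of negative control wells and 100% = mean of positive control wells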
MgrA-DNA mod – S. aureus MgrA-DNA binding modulation | 84,000 compounds, 0.13% hits | fluorescence polarization | inhibition, %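 (about 10 µg/mL by stock and volumes)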;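 active = above 50% in either of two replicates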;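 also: 0% = protein plus DNA without compound and 100% = DNA alone without protein; higher means less MgrA bound to DNA so lower polarization; one replicate is shown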
Active calls of the source: *; . = no result given; & = joins results of further samples. Only part of the results is shown, so the mix of outcomes need not match the whole.

Sa helicase inh	MgrA-DNA mod	SMILES
-22	.	COc1ccc(/C=C/C(=O)Nc2ccc(N3CCOCC3)cc2)cc1OC
.	-1.4	O=C(NC(=O)c1ccccc1O)c1ccc2c(c1)CCO2
16	0.5	N#C/C(=C\c1ccc(-c2ccc(S(N)(=O)=O)cc2)o1)S(=O)(=O)c1ccccc1
2	.	Cc1c(O)ccc(C(=O)CN2CCN(Cc3ccccc3)CC2)c1O
7	-3.0&2.7	CCCc1nn(C)c2c(=O)[nH]c(-c3cc(S(=O)(=O)N4CCN(C)CC4)ccc3OCC)nc12
3	1.8	CCn1c(=N)n(CC(=O)c2cccs2)c2ccccc21
.	-0.6	CN(C)/C=N/c1nnc(Sc2ccc(C(F)(F)F)cc2[N+](=O)[O-])s1
-3	.	CC(NC(=O)CCn1c(=O)oc2ccccc21)c1ccccc1 (stereo unspecified)
0	0.8	c1ccc(OCc2ccc(CCCN3CCOCC3)cc2)cc1
17	-0.8	O=C(NCCSc1c(-c2ccc(Br)cc2)[nH]c2ccccc12)c1ccncc1
16	2.4	CCCCS(=O)(=O)N1CCN(c2cc(Cl)ccc2C)CC1
19	.	CC1NC(=S)N(C2CCCCC2)C1=O (stereo unspecified)

Next section
Sa helicase inh	MgrA-DNA mod	SMILES
3	.	CCOC(=O)c1c(C)c(C(=O)N(C)C2CCCCC2)c(C)n1C
4	.	CCn1c(=N)n(CCOc2ccc(OC)cc2)c2ccccc21
11	.	CCN1C(=O)c2cccc3c(S(=O)(=O)NCC4CCCO4)ccc1c23 (stereo unspecified)
3	.	COC(=O)c1c(N)n(-c2ccc(F)c(F)c2)c2nc3ccccc3nc12
18	-2.3	O=C(NC1CCS(=O)(=O)C1)C(c1ccccc1)c1ccccc1 (stereo unspecified)
-10	.	CN(C)S(=O)(=O)c1cccc(C(=O)NCC2COc3ccccc3O2)c1 (stereo unspecified)
7	4.8	O=C(Nc1ccccc1)Nc1nncs1
.	-0.6	CC(C)(C)c1ccc(/C(N)=N/O)cc1
.	-2.5	Nc1csc(C(F)(F)F)c1-c1ccccc1
-7	2.4	COc1ccccc1CNc1ccccc1C(=O)N1CCOCC1
.	-0.9	O[C@H](CSc1ncccn1)C(F)(F)F
-8	.	O=C(/C=C/c1ccc(S(=O)(=O)N2CCCCCC2)cc1)N1CCN(C2CCS(=O)(=O)C2)CC1 (stereo unspecified)

Additional records follow.
Sa helicase inh	MgrA-DNA mod	SMILES
.	-1.0	Cc1ncc(CSc2nccc(=O)[nH]2)c(CO)c1O
7	2.2	COc1ccc(C2=NOC(C(=O)N(C)Cc3ccccc3)C2)cc1 (stereo unspecified)
-8	.	CC1Cc2ccccc2N1C(=O)CC(C#N)(C#N)CC(=O)N1c2ccccc2CC1C (stereo unspecified)
-12	.	CCC(C)C1C(C#N)=C(N)Oc2n[nH]c(C)c21 (stereo unspecified)
12	-1.6	CCC1(CC)Cc2ccccc2C(CC(=O)N2CCOCC2)=N1
.	12	N#CC1=C(N)Oc2c(Br)cc(Br)cc2C1C(C#N)C#N (stereo unspecified)
10	-0.8	c1ccc(COc2ccc(NCCc3ccncc3)cc2)cc1
2	.	CCN(CC(=O)NCc1cccs1)C(=O)c1cn(-c2ccccc2)nc1-c1cccs1
.	-1.3	CSc1cc(-c2ccccc2)[nH]c(=O)c1C#N
8	.	CCOC(=O)Cn1c(CN2CCN(c3cccc(Cl)c3)CC2)nc2c1c(=O)[nH]c(=O)n2C
4	-3.8	COC(CN(C)C(=O)c1cc2c(C)nc3ccccc3c2o1)OC
-14	-1.9	CC(C)Sc1nnc2sc3ccccc3n12

Laid out differently: entries from further up.
Each structure is followed by: Sa helicase inh, MgrA-DNA mod
CC1Cc2ccccc2N1C(=O)CC(C#N)(C#N)CC(=O)N1c2ccccc2CC1C (stereo unspecified)
    -8, .
CCC(C)C1C(C#N)=C(N)Oc2n[nH]c(C)c21 (stereo unspecified)
    -12, .

More records
Sa helicase inh	MgrA-DNA mod	SMILES
12	4.0	COCc1cc(C)nc2sc3c(nnn4c5ccccc5nc34)c12
6	0.3	CC(OC(=O)/C=C/c1cccs1)C(=O)Nc1cccc(C(F)(F)F)c1 (stereo unspecified)
-3	.	Nc1nc(CCC(=O)OCc2c(F)cccc2Cl)nc(Nc2ccccc2)n1
.	1.7	CCOC(=O)C1CCN(c2ccc(C(C)=O)cc2N)CC1
-4	.	O=C1CCC/C1=C\c1ccccc1
-16	0.6	COc1ccccc1C1C=CCC1 (stereo unspecified)
17	.	CCN(CC)S(=O)(=O)c1ccc2[nH]c(=O)cc(C(=O)N3CCCSc4ccccc43)c2c1
.	-4.5	O=C(NC1Cc2ccccc2C1)c1ccc(Oc2cc(Cl)cc(Cl)c2)o1
.	-1.0	O=C(NC1CCN(Cc2ccccc2)CC1)C1CCCCC1
-12	.	Cc1ccc(C(=O)N(C)C2CCN(C)CC2)cc1C
-19	.	Cc1oc2ncn(CC(C)C)c(=O)c2c1C(=O)N1CCCC1
8	.	FC(F)(F)c1ccc(NC2=NCCC2)cc1

Continued.
Sa helicase inh	MgrA-DNA mod	SMILES
6	.	COC(=O)c1ccccc1NC(=O)CCCN1C(=O)CSc2ncccc21
-21	-6.6	CC(=O)N(/C=C1\Sc2ccccc2C1=O)c1ccccc1
.	0.3	O=C(Nn1c(-c2ccc(Br)cc2)nc2ccccc2c1=O)c1ccc([N+](=O)[O-])cc1
-1	.	CCCn1c(N)c(C(=O)COC(=O)c2cccc(NC(=O)OC(C)(C)C)c2)c(=O)[nH]c1=O
20	.	CN1C(=O)/C(=C\c2ccccc2)Sc2ccc(C(=O)N3CCN(c4ccccn4)CC3)cc21
-10	.	CCCn1c(NC(=O)Nc2ccccc2)c2ccccc2nc1=O
.	-1.8	O=C(c1ccc(Cl)cc1)N1CCN(C(=O)c2ccc(Cl)cc2)CC1
-30	.	CCc1ccc(NS(=O)(=O)c2ccc3[nH]cc(C(=O)NCCOC)c(=O)c3c2)cc1
11	-0.4	COC(=O)Cn1c(=O)sc2ccccc21
12	0.9	O=C(CSc1nnc(-c2cccnc2)n1-c1ccccc1)NCc1ccccc1
-23	.	O=C1N/C(=C/c2ccsc2)C(=O)N1Cc1ccccc1F
.	1.6	Cc1nn(S(=O)(=O)c2ccccc2)c(C)c1Cc1c(F)cccc1Cl

(next part)
Sa helicase inh	MgrA-DNA mod	SMILES
-11	.	O=C1CN(C(=O)CSc2nnc(Nc3ccccc3F)s2)c2ccccc2N1
-2	.	O=c1[nH]cc(S(=O)(=O)N2CCc3ccccc32)c(=O)[nH]1
4	2.0	O=c1[nH]ncc(NCCN2CCOCC2)c1Cl
-15	.	CCOC(=O)c1c(NC(=O)COC(=O)Cn2cnc3ccccc32)sc2c1CCC(C)C2 (stereo unspecified)
3	0.4	O=C(NC1CCCC1)c1ccc(Br)s1
7	.	O=C(CSCCN1C(=O)c2ccccc2C1=O)NCc1ccc(F)cc1
5	.	O=C(O)CC(Cc1ccccc1)c1ccco1 (stereo unspecified)
.	6.0	CN(C)/N=C(\N)c1ccc(Cl)cc1
3	-2.2	COc1ccc(Cn2nnnc2C(c2ccccc2F)N(Cc2ccco2)CC2CCCO2)cc1 (stereo unspecified)
-11	.	CCN(C(=O)C1CCN(S(=O)(=O)c2cccc3nsnc23)CC1)c1ccc(C)c(C)c1
2	-1.8	CCOC(=O)N1CCN(c2c(F)cc3[nH]c(=S)[nH]c3c2Br)CC1
-4	.	O=C(CCCn1c(=O)oc2ccccc21)N1CCCc2ccccc21

(further entries)
Sa helicase inh	MgrA-DNA mod	SMILES
7	16	COC(=O)c1c(-c2ccc(C(C)(C)C)cc2)csc1NC(=O)C1C2CCC(O2)C1C(=O)O (stereo unspecified)
1	-0.9	N#C/C(=C(/O)c1cc[n+](Cc2ccccc2)cc1)c1nc2ccccc2[nH]1
-23	.	CC(C(=O)NCc1ccccc1)n1c2ccccc2c2cn[nH]c(=O)c21 (stereo unspecified)
-14	3.1	CCc1nccn1C(=O)CCCC(=O)O
8	.	CCCCn1c(CCCNC(=O)c2cccs2)nc2ccccc21
8	0.3	CC1Oc2ccccc2N(CC(=O)NC2CC2)C1=O (stereo unspecified)
31	.	CCCOC(=O)c1cc(-c2ccc(/C=C3\C(=O)NC(=O)C(C#N)=C3C)o2)ccc1Cl
10	-1.9	Cn1c(SCc2ccccc2)nnc1C1CCCN(C(=O)Cc2ccc3c(c2)OCO3)C1 (stereo unspecified)
.	-0.3	CCOC(=O)c1cc(C)n(-c2cccc([N+](=O)[O-])c2)c1-c1ccccc1
-3	-1.1	Cc1ccc(C(=O)c2ccccc2C(=O)OCC(=O)c2ccc(F)cc2)cc1
9	1.5	Cc1cc(Cl)ccc1OCCCC(=O)Nc1ccc(S(=O)(=O)Nc2ncccn2)cc1
-1	-4.4	CSc1nc2ccc(Br)cc2[nH]1

6 of the compounds above, in markdown.
| SMILES | Sa helicase inh | MgrA-DNA mod |
| --- | --- | --- |
| CCc1nccn1C(=O)CCCC(=O)O | -14 | 3.1 |
| CSc1nc2ccc(Br)cc2[nH]1 | -1 | -4.4 |
| Cn1c(SCc2ccccc2)nnc1C1CCCN(C(=O)Cc2ccc3c(c2)OCO3)C1 (stereo unspecified) | 10 | -1.9 |
| CC1Oc2ccccc2N(CC(=O)NC2CC2)C1=O (stereo unspecified) | 8 | 0.3 |
| CCCCn1c(CCCNC(=O)c2cccs2)nc2ccccc21 | 8 | . |
| Cc1cc(Cl)ccc1OCCCC(=O)Nc1ccc(S(=O)(=O)Nc2ncccn2)cc1 | 9 | 1.5 |

Carrying on.
Sa helicase inh	MgrA-DNA mod	SMILES
.	-2.2	CC1=C(C(=O)Nc2ccccc2)C(c2ccccc2)n2c(s/c(=C/c3ccc4c(c3)OCO4)c2=O)=N1 (stereo unspecified)
-7	-0.7	O=C(O)c1cccc(-c2ccc3c(c2)OCO3)c1
16	.	CCCc1nc2ccccc2n1CC
-5	.	Cc1cnc(NC(=O)CC(C)c2ccccc2)s1 (stereo unspecified)
.	-1.2	COc1ccc(Oc2nc(-c3ccccc3)ns2)cc1
7	-0.1	O=C(CN1C(C(=O)c2ccccc2)=C(N2CCOCC2)c2ccccc2S1(=O)=O)c1ccccc1
-66	3.8	CN(C)c1ccc(/C=C2\CCC/C(=C\c3ccccc3)C2=O)cc1
-5	-0.6	O=C(c1ccc2c(c1)sc1nc(-c3ccccc3)cn12)N1CCCC1
10	-0.5	O=C(CN1C(=O)C2C3C=CC(C3)C2C1=O)Nc1nnc(C(F)(F)F)s1 (stereo unspecified)
8	0.3	CCn1cc(C(=O)O)c(=O)c2cc(F)c(F)cc21
18	.	Cc1nc(C)c(-c2csc(Nc3ccc(O)c(C(=O)O)c3)n2)s1
-15	.	CC(=O)N1N=C(c2c(C)coc2C)CC1c1ccc(Cl)cc1Cl (stereo unspecified)

(more compounds)
Sa helicase inh	MgrA-DNA mod	SMILES
-14	.	N#Cc1c(OC(=O)c2ccco2)ccc(OC(=O)c2ccco2)c1C#N
20	.	CC(OC(=O)C1CC2CCCC(C1)C2=O)C(=O)N1c2ccccc2CC1C (stereo unspecified)
2	3.8	CC(C)(C)C(=O)N(Cc1ccccc1)Cc1ccccc1
12	.	CC(C)(C)N(Cc1ccccc1)C(=O)CSc1nc2ccccc2o1
.	-1.9	COc1c(C(=O)NCc2ccc(Cl)cc2)csc1Cl
.	0.2	Clc1ccc(C2=NC(c3ccc(Cl)cc3)N=C(c3ccc(Cl)cc3)S2)cc1
1	.	Cn1c(-c2ccccc2)c(C(=O)CN2CCN(C(=O)c3ccco3)CC2)c2ccccc21
.	0.8	C=CCSc1nnc(-c2oc3nc(-c4ccccc4)cc(-c4ccccc4)c3c2N)n1C
-14	1.6	CN1/C(=C/C(=S)C(C)(C)C)Sc2ccccc21
-39	.	CCOC(=O)C1C(c2ccc(Br)cc2)C(C(=O)OCC)C(O)(C(F)(F)F)NC1(O)C(F)(F)F (stereo unspecified)
.	-0.3	Cc1ccc2c(N3CC4CCC(CC4)C3)cc(C(F)(F)F)nc2c1
30	.	N#Cc1c2c(c(NCCN3CCOCC3)n3c1nc1ccccc13)CCCC2

(continued)
Sa helicase inh	MgrA-DNA mod	SMILES
6	-1.0	NCC(c1ccc(F)cc1)N1CCOCC1 (stereo unspecified)
-1	0.0	CCC(=O)N1CCN(c2ccc(NC(=S)NC(=O)c3cc4ccccc4o3)cc2Cl)CC1
5	.	CC1CCN(C(=O)CSc2ncnc3c2nnn3Cc2ccc(F)cc2)CC1
6	.	COC(=O)c1ccc(COC(=O)c2ccc(O)cc2)o1
.	-4.2	O=c1[nH]c(O)c(C=Nc2cc(C(F)(F)F)cc(C(F)(F)F)c2)c(=O)[nH]1
16	7.9	CC1(C)CC(=O)C(=Cc2ccc3c(c2)OCCO3)C(=O)C1
7	.	CCc1nc2sc3c(c2c2nncn12)CCC3
8	0.6	COC(=O)c1ccc(COC(=O)c2ccccc2OC)cc1
-16	.	CCOC(=O)c1ccc2nc(C(F)(F)F)cc(N3CC(C)CC(C)C3)c2c1 (stereo unspecified)
.	-0.5	N#Cc1ccc(C=Nc2ccc(Cl)cc2)cc1
.	-1.2	Cn1c(=O)cc(O)c2ccccc21
.	0.7	O=S(=O)(Nc1cccc(-c2nnco2)c1)c1ccc(Cl)cc1
4	1.4	Cc1ccsc1C=Nc1ccc(OC(F)(F)F)cc1
.	-2.2	CCOC(=O)C1=C(C)N=c2s/c(=C\c3ccc(-c4ccc(C(=O)O)cc4)o3)c(=O)n2C1c1ccc2c(c1)OCO2 (stereo unspecified)
18	.	Cn1c(SCC(=O)NC2CCCC2)nnc1-c1c[nH]c2ccccc12

Record cards, as listed above. Screens in order: Sa helicase inh	MgrA-DNA mod
`O=C(/C=C/c1ccc(S(=O)(=O)N2CCCCCC2)cc1)N1CCN(C2CCS(=O)(=O)C2)CC1` (stereo unspecified) is listed with -8	.
`O=S(=O)(Nc1cccc(-c2nnco2)c1)c1ccc(Cl)cc1` is listed with .	0.7
`CC1CCN(C(=O)CSc2ncnc3c2nnn3Cc2ccc(F)cc2)CC1` is listed with 5	.
